Compound activity (PubChem)
YopH PTP inh – inhibitors of Yersinia enterocolitica YopH tyrosine phosphatase; fluorescence Ex485/Em525; inhibition, %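 (about 10 µM by stock and volumes)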; 0.16% of 140,000 active;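 active = inhibition of 50% or more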;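 note: controls were vehicle for no effect and minimum signal wells for full effect; inactives centre near -20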
Mtb betalactam – beta-lactam sensitization of Mtb H37Rv | M. tuberculosis H37Rv growth with meropenem, percent inhibition; hits of this screen are not shown here | inhibition, % at 25 µM | 0.27% of 330,000 active | AID 434955;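 active = about 74% or more and at least 40 points above the plate without the antibiotic, then above 30% in a dose series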;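 note: growth measured after seven days incubation then overnight dye step; 0% = bacteria only wells and 100% = bacteria with antibiotic; twin plates without the antibiotic show which effects depend on it; some results filed as inactive read as strong as hits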
Mtb H37Rv – M. tuberculosis H37Rv growth inhibitors, H37Rv strain (AID 1626) | M. tuberculosis H37Rv growth inhibition; higher % means a stronger effect | one-dose inhibition, % at 10 µM; IC50 in µM for titrated hits | 0.95% of 220,000 active;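 active = confirmed in a dose series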;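 note: bacteria incubated seven days before Alamar blue readout; 0% = bacteria only wells and 100% = bacteria with antibiotic wells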
Arbovirus inh – blocks arbovirus infection; arbovirus infection cell-based antiviral screen; inhibition, % at 10 µM; 0.37% of 200,000 active; AID 1251;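 active = inhibition from about 30%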;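 note: bluetongue infection of BSR cells; cell survival read as ATP light after 72 h; 0% = infected wells without compound and 100% = uninfected wells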
RecA intein inh – Mtb RecA intein splicing inhibition; P9WHJ3; cell-free RecA intein splicing, fluorescence; inhibition, %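 (about 9 µM by stock and volumes)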; 0.75% of 290,000 active; in the data active = inhibition above about 30%;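 note: 0% = vehicle wells and 100% = reference inhibitor control wells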
Target sequence (P9WHJ3 whole entry, looked up): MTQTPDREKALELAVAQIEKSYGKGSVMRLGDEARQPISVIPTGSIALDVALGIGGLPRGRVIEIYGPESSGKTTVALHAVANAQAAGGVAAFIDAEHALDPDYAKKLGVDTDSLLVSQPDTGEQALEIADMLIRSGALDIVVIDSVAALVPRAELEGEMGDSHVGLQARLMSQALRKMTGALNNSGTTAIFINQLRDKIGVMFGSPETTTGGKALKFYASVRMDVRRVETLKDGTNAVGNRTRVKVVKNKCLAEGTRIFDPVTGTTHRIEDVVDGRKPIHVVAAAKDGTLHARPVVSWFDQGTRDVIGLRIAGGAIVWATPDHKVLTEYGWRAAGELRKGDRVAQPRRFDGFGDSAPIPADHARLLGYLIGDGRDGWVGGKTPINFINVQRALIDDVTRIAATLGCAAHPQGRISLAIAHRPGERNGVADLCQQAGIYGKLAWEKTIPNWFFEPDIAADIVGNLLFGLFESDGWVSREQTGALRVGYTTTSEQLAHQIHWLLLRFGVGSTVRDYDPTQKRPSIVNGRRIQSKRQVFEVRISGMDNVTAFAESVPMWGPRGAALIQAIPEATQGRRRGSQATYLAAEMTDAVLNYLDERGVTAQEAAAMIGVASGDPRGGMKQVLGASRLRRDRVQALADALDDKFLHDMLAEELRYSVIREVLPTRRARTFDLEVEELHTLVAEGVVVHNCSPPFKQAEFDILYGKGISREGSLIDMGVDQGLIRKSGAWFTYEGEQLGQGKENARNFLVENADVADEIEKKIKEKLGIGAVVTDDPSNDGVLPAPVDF
Arbovirus inh repeat – further read-out of Arbovirus inh, marked with its call; inhibition, %; measured here: 10K subset replicate screen; many hits read low in the repeat;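 first of two repeat runs on a subset; 0% = infected and 100% = uninfected wells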
An asterisk follows results filed as active; & = joins results of further samples. A portion of the library, so the mix of outcomes need not match the whole.

Screening Cc1cc(C(=O)O)c(=O)[nH]c1C returned YopH PTP inh -13, Mtb betalactam 7, Mtb H37Rv -8%, Arbovirus inh 1 and RecA intein inh -2.8.
For CNC(=O)NCC12CC3CC(CC(C3)C1)C2 the results were YopH PTP inh -38, Mtb betalactam -5, Mtb H37Rv -7%, Arbovirus inh 1 and RecA intein inh 0.8.
For COc1cc(OC)cc(C(=O)NCC(=O)OC2CCOC2=O)c1 (stereo not drawn) the results were YopH PTP inh -21, Mtb betalactam -7, Mtb H37Rv -10%, Arbovirus inh -1 and RecA intein inh -1.8.
For CC(=O)Nc1ccc(S(=O)(=O)Nc2nc3ccccc3nc2N2CCCC2)cc1 the results were YopH PTP inh 1, Mtb betalactam -10, Mtb H37Rv -4%, Arbovirus inh 7 and RecA intein inh -1.9.
`Brc1cccc(C=Nc2cccc3ncccc23)c1` gave Mtb betalactam -7 and RecA intein inh 1.4.
For COc1ccc(S(=O)(=O)n2nc(-c3ccc(Cl)cc3)cc2N)cc1 the results were Mtb betalactam -1, Mtb H37Rv -6% and RecA intein inh -1.6.
For Cc1ccc2[nH]c(=O)c(C(c3nnnn3C3CCCC3)N3CCCc4ccccc43)cc2c1 (stereo not drawn) the results were YopH PTP inh -10, Mtb betalactam 48, Mtb H37Rv -16% and Arbovirus inh -1.
O=C(/C=C/c1ccco1)NCC1(c2ccccc2)CCCC1 was read as YopH PTP inh -12, Mtb betalactam -2, Mtb H37Rv 13%, Arbovirus inh 14 and RecA intein inh 7.0.
Screening CN(Cc1ccccc1)S(=O)(=O)c1ccc2[nH]cc(C(=O)NCC3CCCO3)c(=O)c2c1 (stereo not drawn) returned YopH PTP inh -21, Mtb betalactam 5 and Arbovirus inh 25.
`O=C(Cn1c(O)c(/C=C2\C=Nc3ccccc32)sc1=O)Nc1ccc2c(c1)OCO2` gave YopH PTP inh -18, Mtb betalactam 1, Mtb H37Rv -8%, Arbovirus inh -9 and RecA intein inh 0.1.
Screening Oc1ccc(Cl)cc1/C=N/c1nccs1 returned YopH PTP inh -36, Mtb betalactam -12, Mtb H37Rv -6%, Arbovirus inh 0 and RecA intein inh 5.1.
For CCNS(=O)(=O)c1ccc(C(=O)Nc2ccccc2)cc1 the results were YopH PTP inh 13, Mtb betalactam 3, Mtb H37Rv 1%, Arbovirus inh 4 and RecA intein inh -1.8.
Screening Cc1ccsc1C(=O)C1CCCN(Cc2cccn2-c2ccc(Cl)cn2)C1 (stereo not drawn) returned Mtb betalactam -2, Mtb H37Rv 13%, Arbovirus inh -10 and RecA intein inh 0.7.
For COc1cc(C)nc(N2CCCC(C(=O)NCC(C)C)C2)n1 (stereo not drawn) the results were YopH PTP inh -6, Mtb betalactam 5, Mtb H37Rv -8%, Arbovirus inh -6 and RecA intein inh -14.
`Cc1ccc(CS(=O)(=O)CCC(=O)NCc2ccc3c(c2)OCO3)cc1` gave YopH PTP inh -19, Mtb betalactam 1, Mtb H37Rv -2%, Arbovirus inh -5 and RecA intein inh 1.8.
COc1ccc2cc(CN(Cc3ccco3)C(c3nnnn3C3CCCCC3)C(C)C)c(=O)[nH]c2c1 (stereo not drawn) was read as YopH PTP inh 18, Mtb betalactam 20, Mtb H37Rv 6%, Arbovirus inh -3 and RecA intein inh -11.
Screening CC(NC(=O)c1cccs1)c1ccccc1 (stereo not drawn) returned Mtb betalactam 5 and RecA intein inh -3.1.
`COc1ccc(C(=O)N2CCN(S(=O)(=O)N3CCOCC3)CC2)cc1OC` gave YopH PTP inh -22, Mtb betalactam -5, Mtb H37Rv 1%, Arbovirus inh 0 and RecA intein inh 0.5.
Screening Cc1cc([N+](=O)[O-])nn1CC(=O)NNC(=S)Nc1ccc([N+](=O)[O-])cc1 returned YopH PTP inh -14, Mtb betalactam -8, Mtb H37Rv -7%, Arbovirus inh 3 and RecA intein inh -0.6.
`O=C(NCCC1CCCCN1S(=O)(=O)c1ccc(F)cc1)C(=O)NCC1CCCO1` (stereo not drawn) gave Mtb betalactam -12 and RecA intein inh -1.2.
`O=C1CCC(C(=O)Nc2nnc(C3CC3)s2)=NN1` gave Mtb betalactam -4, Mtb H37Rv -10%, Arbovirus inh 5 and RecA intein inh -2.4.
For CCN1C(=O)/C(=C\c2ccc(-c3cccc(C(=O)OC)c3)o2)SC1=Nc1ccc(C(=O)O)cc1 the results were Mtb betalactam 1 and RecA intein inh -3.8.
CCC(C)(C)NC(=O)CCCSc1nc2ccccc2s1 was read as Mtb betalactam -3, Mtb H37Rv 9%, Arbovirus inh 5 and RecA intein inh -4.2.
CSCC[C@H](NC(=O)NC1CCCC1)C(=O)O was read as Mtb betalactam -4, Mtb H37Rv -6% and RecA intein inh -2.5.
`COc1cccc(C(=O)N2CCN(Cc3cn[nH]c3-c3ccc(F)cc3F)CC2)c1` gave Mtb betalactam 5, Mtb H37Rv 0%, Arbovirus inh 0 and RecA intein inh 2.9.
`CC(C)NC(NC(=O)Cc1ccccc1)C(Cl)(Cl)Cl` (stereo not drawn) gave YopH PTP inh -48, Mtb betalactam 0, Mtb H37Rv 4%, Arbovirus inh 1 and RecA intein inh -1.3.
Screening CC(=O)N1CCC(C(=O)N2CCN(S(=O)(=O)c3cccs3)CC2)CC1 returned Mtb betalactam -3 and RecA intein inh 1.8.
Screening CC1(C)CC2(CCO1)OC(=O)CC2C(=O)Nc1ccccc1Cl (stereo not drawn) returned Mtb betalactam -3, Mtb H37Rv -3%, Arbovirus inh 4 and RecA intein inh -0.1.
Screening Cc1cccc(N=C2NC(=O)C(CO)(CO)S2)c1 returned Mtb betalactam -20 and RecA intein inh -0.2.
CCOC(=O)Cc1csc(NC(=O)/C=C\c2ccccc2)n1 was read as Mtb betalactam 7, Mtb H37Rv 13%, Arbovirus inh 7 and RecA intein inh 1.4.
O=C1CC(N2CCN(c3ccc(Cl)c(Cl)c3)CC2)C(=O)N1 (stereo not drawn) was read as YopH PTP inh -29, Mtb betalactam -8, Mtb H37Rv 1%, Arbovirus inh 5 and RecA intein inh -1.1.
`NC(=O)N1c2ccccc2CC(=O)c2ccccc21` gave YopH PTP inh 13, Mtb betalactam 0, Mtb H37Rv -10%&3%, Arbovirus inh -19&-6 and RecA intein inh -9.2.
Screening CC1CC(C)CN(S(=O)(=O)c2cc3c4c(c2)CCC(=O)N4CCC3)C1 (stereo not drawn) returned Mtb betalactam 3 and RecA intein inh 0.6.
For O=C1N[C@@H](Cc2cn(S(=O)(=O)c3c(F)c(F)c(F)c(F)c3F)c3ccccc23)C(=O)N[C@H]1Cc1ccccc1 the results were Mtb betalactam 0, Mtb H37Rv -12% and RecA intein inh 0.6.
Screening O=C(Nc1nccs1)c1ccc(Cl)c([N+](=O)[O-])c1 returned Mtb betalactam 50 and RecA intein inh -1.4.
FC(F)(F)c1cccc(N2CCc3cn[nH]c32)c1 was read as YopH PTP inh -12, Mtb betalactam -16, Mtb H37Rv -3%, Arbovirus inh 6 and RecA intein inh -0.9.
Screening COc1ccc(OCC(=O)Nc2ccc(N3CCOCC3)cc2)cc1 returned YopH PTP inh -7, Mtb betalactam -3, Mtb H37Rv -2%, Arbovirus inh 1 and RecA intein inh 2.1.
Screening COc1ccccc1CNC(=O)C1CCC(CNC(=O)[C@@H]2Cc3ccccc3CN2)CC1 (stereo partly drawn) returned Mtb betalactam 1 and RecA intein inh -0.5.
For CCOC(=O)c1[nH]c2ccc(OC)cc2c1NC(=O)/C=C/c1ccc2c(c1)OCO2 the results were YopH PTP inh 3, Mtb betalactam -5, Mtb H37Rv 5%, Arbovirus inh -4 and RecA intein inh -1.6.
`Cc1nc(-c2ccccc2)sc1C(=O)CSc1ccccc1` gave YopH PTP inh -46, Mtb betalactam -4, Mtb H37Rv -1%, Arbovirus inh -10 and RecA intein inh 11.

Brought forward from above: 4 compounds, then new ones.
Screening COc1ccc(OCC(=O)Nc2ccc(N3CCOCC3)cc2)cc1 returned YopH PTP inh -7, Mtb betalactam -3, Mtb H37Rv -2%, Arbovirus inh 1 and RecA intein inh 2.1.
Screening COc1ccccc1CNC(=O)C1CCC(CNC(=O)[C@@H]2Cc3ccccc3CN2)CC1 (stereo partly drawn) returned Mtb betalactam 1 and RecA intein inh -0.5.
For CCOC(=O)c1[nH]c2ccc(OC)cc2c1NC(=O)/C=C/c1ccc2c(c1)OCO2 the results were YopH PTP inh 3, Mtb betalactam -5, Mtb H37Rv 5%, Arbovirus inh -4 and RecA intein inh -1.6.
`Cc1nc(-c2ccccc2)sc1C(=O)CSc1ccccc1` gave YopH PTP inh -46, Mtb betalactam -4, Mtb H37Rv -1%, Arbovirus inh -10 and RecA intein inh 11.
Screening COc1cc2c(cc1OC)CN(CC(=O)Nc1cccc(C(F)(F)F)c1)CC2 returned Mtb betalactam -1 and RecA intein inh -3.0.
`CCOC(=O)c1cnn(-c2nc3c(C)cccc3s2)c1C(F)(F)F` gave YopH PTP inh -10, Mtb betalactam 95, Mtb H37Rv 55µM*, Arbovirus inh 7 and RecA intein inh -4.1.
`Nc1ccccc1C(=O)/C=C/c1ccc2c(c1)OCO2` gave YopH PTP inh 3, Mtb betalactam 0, Mtb H37Rv -6%, Arbovirus inh 10 and RecA intein inh -3.1.
CCOc1ccccc1-c1cc(C(=O)N/N=C/c2ccc3c(c2)OCO3)c2ccccc2n1 was read as YopH PTP inh -11, Mtb H37Rv 1% and Arbovirus inh -14.
COCCNC(=O)CN(c1ccc(C)cc1)S(=O)(=O)c1ccc(SC)cc1 was read as YopH PTP inh 11, Mtb betalactam -16, Mtb H37Rv -12%, Arbovirus inh 2, RecA intein inh -3.5 and Arbovirus inh repeat 2.
O=C1c2ccccc2S(=O)(=O)c2cc(N3CCN(c4ccccn4)CC3)ccc21 was read as Mtb betalactam 0, Mtb H37Rv -5% and RecA intein inh -7.4.
For COCCN(CCOC)C(=O)c1c[nH]c2ccc(S(=O)(=O)N(C)c3ccc(F)cc3)cc2c1=O the results were YopH PTP inh -38, Mtb betalactam -1, Mtb H37Rv -5%, Arbovirus inh -1 and RecA intein inh -2.9.
`Cc1ccc(S(=O)(=O)N2CCOC23CCN(S(=O)(=O)c2cccs2)CC3)cc1` gave Mtb betalactam -1 and RecA intein inh 2.3.
`COc1ccc(CNC(=O)[C@@H](NC(=O)C2CCN(C(=O)[C@@H](N)Cc3ccccc3)CC2)C(C)C)cc1` gave Mtb betalactam 1 and RecA intein inh -0.7.
COC(=O)C1=C(C)NC(C)=C(C(=O)OC)C1C(=O)OCC(=O)N1c2ccccc2CC1C (stereo not drawn) was read as YopH PTP inh -3, Mtb betalactam -5, Mtb H37Rv -8%, Arbovirus inh -4 and RecA intein inh -6.7.
For CC(C)c1ccc(-c2nnn(CC(=O)N3CCCCC3)n2)cc1 the results were Mtb betalactam 8 and RecA intein inh 1.4.
`O=[N+]([O-])c1cccc(CNCc2ccccc2)c1` gave Mtb betalactam 3, Mtb H37Rv -3%, Arbovirus inh 0 and RecA intein inh -7.8.
O=S(=O)(NCCc1ccccc1)c1cccc2cccnc12 was read as Mtb betalactam -5, Mtb H37Rv 0%, Arbovirus inh 0 and RecA intein inh 2.8.
`CN(c1ccc(C(=O)Nc2cccc([N+](=O)[O-])c2)cc1)S(C)(=O)=O` gave Mtb betalactam -6, Mtb H37Rv 7%, Arbovirus inh -1 and RecA intein inh -0.9.
COc1cc(C(=O)OCC(=O)NCCN2C(=O)CSC2=O)ccc1OCc1c(C)noc1C was read as Mtb betalactam 2, Mtb H37Rv 2%, Arbovirus inh 0 and RecA intein inh -5.8.
Screening CCCn1cc2c(c1-c1ccc(C)cc1)c(=O)n(C)c(=O)n2C returned Mtb betalactam 2, Mtb H37Rv -2%, Arbovirus inh -5 and RecA intein inh 3.5.
Screening CCCNC(=O)Nc1ccc(C)cc1C returned Mtb betalactam 10, Mtb H37Rv -6% and RecA intein inh 0.6.
`COc1ccc(C(=O)COc2ccc(C)cc2NC(C)=O)cc1` gave Mtb betalactam 0, Mtb H37Rv -3% and RecA intein inh -5.9.

Three entries picked at random from those above, as already listed:
COCCNC(=O)CN(c1ccc(C)cc1)S(=O)(=O)c1ccc(SC)cc1 was read as YopH PTP inh 11, Mtb betalactam -16, Mtb H37Rv -12%, Arbovirus inh 2, RecA intein inh -3.5 and Arbovirus inh repeat 2.
Screening O=C(Nc1nccs1)c1ccc(Cl)c([N+](=O)[O-])c1 returned Mtb betalactam 50 and RecA intein inh -1.4.
Screening Cc1cccc(N=C2NC(=O)C(CO)(CO)S2)c1 returned Mtb betalactam -20 and RecA intein inh -0.2.
